# Sfp PPTase inh = qHTS Assay for Inhibitors of Bacillus subtilis Sfp phosphopantetheinyl transferase (PPTase); Potency, µM, for inactives: max response, negative = inhibition, most hits filed as inhibitors; 310,000 compounds, 3.5% hits; Biochemical Sfp PPTase activity, qHTS; active = well fitted inhibition curve with a large enough effect; inconclusive = small, poorly fitted or top-dose-only effect, or another doubt; inactive = no such curve, though single readings can be large or run the other way;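 also: the enzyme is Sfp with the accession as filed and its product quenches rhodamine fluorescence; potency is read from the fitted curve at half-maximal effect; 0% = enzyme reaction without inhibitor and -100% = no enzyme wells; top concentration of the series not given in the record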
#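 With Hepes-Na pH 7.6 buffer containing 10 mM MgCl2, Sfp (15 nM) modified BHQ-2-YbbR (12.5 uM) using rhodamine-CoA (5 uM). Two reads 30 minutes apart at 525/598 nm yielded each well's rate.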
# ClpP mod = qHTS Assay for Activators of ClpP. 340,000 compounds, 1.9% hits. Potency, µM (highest dose often 57.5 µM), for inactives: at the top dose activity change, negative = active. purified B. subtilis ClpP, FRET peptide cleavage, 20 min. AID 651965, 2013; active = well fitted falling curve with a large enough effect; inconclusive = small, poorly fitted or top-dose-only effect; inactive = no such curve, though single readings can be large or run the other way; also: potency is read from the fitted curve at half-maximal effect; the source files actives as falling curves though it sought activators and does not explain the sign; nearly all actives have a fitted effect of over 65% in size; many hits overshoot -100%
# Target sequence (P80244 whole entry, looked up): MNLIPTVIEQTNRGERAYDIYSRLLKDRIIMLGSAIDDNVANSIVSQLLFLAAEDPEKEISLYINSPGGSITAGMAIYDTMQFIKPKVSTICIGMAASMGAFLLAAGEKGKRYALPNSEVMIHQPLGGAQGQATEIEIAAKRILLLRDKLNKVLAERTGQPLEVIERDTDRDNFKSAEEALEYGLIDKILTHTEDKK
#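 Purified B. subtilis ClpP, 10 microg/mL final in Tris/HCl pH8 with KCl, BSA, glycerol and Tween-20, cleaved an Abz/nitrotyrosine-quenched decapeptide. Fluorescence (ex 320, em 430) was read at 0 and 20 min at room temperature. Delta was normalized to 5.8 microM ADEP and DMSO/no-enzyme controls.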
# TRPV1 PAM = HTS Assay for Compounds that Act as Potentiators of the Vanilloid Receptor 1. TRPV1-expressing cells, Fluo-8 calcium influx, capsaicin EC20 potentiation; host cell line not named in the record; control for the full effect not named in the record. 320,000 compounds, 0.02% hits. Transient receptor potential cation channel subfamily V member 1 (Homo sapiens), Q8NER1. potentiation, % at 8.33 µM; active means potentiation above 80%; inconclusive means 30% to 80%; inactive means below 30%; also: 0% is about no effect
#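 TRPV1-expressing cells were cultured overnight at 35.5C and loaded with Fluo-8 calcium dye for 40 to 90 min at room temperature. After a 10 s baseline, compound was added and calcium influx was read kinetically for 3 min (ex 480/em 520 nm).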
# D2 potentiator = Beta-Arrestin HTS for Positive Allosteric Modulators of the Human D2 Dopamine Receptor: Potentiators; potentiation, % (concentration not given with the values); D(2) dopamine receptor (Homo sapiens), P14416; 360,000 compounds, 0.23% hits; AID 624464, 2012; DiscoveRx D2 beta-arrestin cells, luminescence, 90 min; 100% = 57 uM dopamine signal; active = potentiation of 50% or more; inconclusive = 30% to 50%; inactive = 30% or less;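 also: tested on top of an EC20 dose of dopamine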
# Target sequence (P14416 whole entry, looked up): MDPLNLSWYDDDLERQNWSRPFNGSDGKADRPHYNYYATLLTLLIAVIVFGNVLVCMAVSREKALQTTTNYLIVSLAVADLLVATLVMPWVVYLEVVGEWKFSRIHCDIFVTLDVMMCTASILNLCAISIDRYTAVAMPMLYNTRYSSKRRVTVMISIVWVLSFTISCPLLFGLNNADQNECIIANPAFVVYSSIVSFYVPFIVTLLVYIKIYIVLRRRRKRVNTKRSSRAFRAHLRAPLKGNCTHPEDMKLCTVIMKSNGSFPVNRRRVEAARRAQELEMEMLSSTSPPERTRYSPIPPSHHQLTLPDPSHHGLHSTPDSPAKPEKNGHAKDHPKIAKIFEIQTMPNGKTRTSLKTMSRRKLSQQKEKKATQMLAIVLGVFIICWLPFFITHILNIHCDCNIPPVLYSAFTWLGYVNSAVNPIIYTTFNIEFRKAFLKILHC
#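 PathHunter D2 cells, attached overnight at 37 deg C, received compound in DMSO plus dopamine at EC20 (50 nM final) for 90 min at 37 deg C. Beta-arrestin recruitment was read as luminescence after 1 h with detection reagent at ambient temperature.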
# gsp agonist = qHTS for Agonist of gsp, the Etiologic Mutation Responsible for Fibrous Dysplasia/McCune-Albright Syndrome: qHTS. AID 624287, 2012. Potency, µM (doses to about 76.9 µM), inactives show top-dose activation (cAMP increase), actives largely listed as activators. 340,000 compounds, 0.13% hits. gsp mutant cells, cAMP HTRF, 30 min; control for the full effect not named in the record; active = well fitted activation curve with a large enough effect; inconclusive = small, poorly fitted or top-dose-only effect, or another doubt; inactive = no such curve, though single readings can be large or run the other way; cell line not stated here;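 also: phosphodiesterase inhibitor Ro 20-1724 added with compounds to block cAMP breakdown; potency is read from the fitted curve at half-maximal effect; nearly all actives have a fitted effect of over 60% in size; about a fifth of the inactives were tested at one dose only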
#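 Cells stably selected in G418 were plated at 2000/well, grown 16-24 hr, then given compounds in DMSO with the PDE inhibitor […] (300 uM solution added) for 30 min at 37C; cAMP was read by HTRF.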
# gsp antagonist = qHTS for Antagonists of gsp, the Etiologic Mutation Responsible for Fibrous Dysplasia/McCune-Albright Syndrome: qHTS. gsp-mutant cells, cAMP HTRF, 30 min; control for the full effect not named in the record. Potency, µM (series often up to 76.9 µM), for inactives: at the highest dose activity change, negative = inhibition, usual class: inhibitors. 340,000 compounds, 0.4% hits. AID 624288, 2012; active = falling curve of any shape with a large fitted effect; inconclusive = falling curve, mostly with a smaller effect; inactive = flat or rising curve; cell line not stated here;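 also: intracellular cAMP measured with PDE inhibitor Ro 20-1724 present during compound exposure; potency is read from the fitted curve at half-maximal effect; % is scaled to controls: 0 for no effect and ±100 for the full control effect; nearly all actives have a fitted effect of over 65% in size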
#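 G418-selected cells were plated in DMEM/10% FBS for 16-24 h at 37C, then treated with compounds plus the PDE inhibitor […] (300 uM solution added) for 30 min at 37C. Intracellular cAMP was measured by HTRF after 30 min lysis at room temperature.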
# Menin-MLL FL inh = qHTS Assay for Inhibitors Targeting the Menin-MLL Interaction in MLL Related Leukemias: Competition With Fluorescein Labeled MLL-derived Peptide; Fluorescence polarization, fluorescein-MLL peptide displacement from menin; FP activity change, % at 61.4 µM; 290,000 tested, under 10 active; inconclusive = falling polarisation curve, or a change in total fluorescence; inactive = total fluorescence flat and polarisation flat or rising; no compound was filed as active; the % refers to the polarisation; negative = inhibition;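 also: % of control where 0% means no effect; inhibitors lower the polarisation; unlabelled MLL peptide was the positive control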
# * hit, by the source's call; ? = inconclusive; nt = not tested or not shown; & = joins results of further samples; [ ] = remark or other dose.
SMILES,Sfp PPTase inh,ClpP mod,TRPV1 PAM,D2 potentiator,gsp agonist,gsp antagonist,Menin-MLL FL inh
COCCCNC(=S)NNC(=O)C1CC1c1ccc(C(C)(C)C)cc1 (stereo unspecified),18%,-0.5%,3,-8,-29%,6%,-1.0
CC(=O)c1cccc(NC(=O)CCS(=O)(=O)c2cccc3nsnc23)c1,56µM*,-4.3%,-1,-31,-26%,6%,11
CCOC(=O)C(C)(C)NS(=O)(=O)c1ccc(Cl)c([N+](=O)[O-])c1,-7%,1.3%,0,17,-7%,-24%,-0.2
Cn1c(=O)c2c(nc(N3CCOCC3)n2CCCNC2=NCCCCC2)n(C)c1=O,1%,0.4%,14,-23,?,6%,1.3
COc1cc(/C=C/C(=O)OC(C)C(=O)NC2CCCCC2C)cc(Cl)c1OC (stereo unspecified),nt,?,5,-11,20%,-7%,nt
O=C(c1ccco1)N1CCN(C(=O)C2CC(=O)N(c3ccccc3)C2)CC1 (stereo unspecified),-1%,-2.0%,6,-5,5%[15.4 µM],5%,nt
O=C(c1sc2cc([N+](=O)[O-])ccc2c1Cl)N1CCCCC1,-4%,-0.4%,-11,2,-3%[15.4 µM],-27%,1.9
Cc1cccc(S(=O)(=O)NC2CCCCCCC2)c1,3%,nt,15,1,-25%[15.4 µM],3%,2.7
CCN(CC)c1ccc(/C=N/NC(=O)c2cnccn2)c(O)c1,13%,1.4%,-6,-7,13%,7%,?
CCc1ccc2oc(=O)cc(CN3CCOCC3)c2c1,11%,-5.1%,-7,-6,13%,-7%,5.6
Cc1ccc(NS(=O)(=O)c2ccc3c(c2)NC(=O)CC(=O)N3)cc1C,3%,1.1%,24,-5,16%,6%,-6.0
CCC1CCCCN1C(=O)NC(=O)c1ccccc1 (stereo unspecified),20%,-0.1%,7,-9,?,-13%,nt
COc1cccc(C2CC(c3ccccc3C)n3nc(N)nc3N2)c1 (stereo unspecified),19%,-5.2%&-0.8%,-22,2,-32%[inhibitor],1%,-1.1
CNc1oc(-c2ccccc2Cl)nc1C#N,3%,?,4,-12,18%,6%,4.5
O=C(O)CSC12CC3CC(C1)CC(C(=O)O)(C3)C2,-18%,1.8%,-13,-8,-18%,2%,-0.9
COc1ccc(S(=O)(=O)Nc2cc(SCC(=O)O)c(O)c3ccccc23)cc1,7.1µM*,36%,21,2,?,-13%,nt
COc1cc(-c2nc(-c3ccc4c(c3)-c3ccccc3S4(=O)=O)c(-c3ccccc3)[nH]2)cc(OC)c1OC,0%,-8.5%,13,-15,20%,-6%,6.6
COC(=O)c1cnn(C(=O)c2cc(OC)ccc2Br)c1N,7%,-1.1%,2,7,11%,1%,5.1
O=C(CCSCCC(=O)NN=Cc1ccccc1O)NN=Cc1ccccc1O,nt,-11%,nt,-8,?,-22%,nt
O=C(COc1coc(CN2CCCc3ccccc32)cc1=O)Nc1cccc([N+](=O)[O-])c1,nt,1.5%,7,1,2%[15.4 µM],-3%,nt
O=C(/C=C/c1ccco1)NCC1COc2ccccc2O1 (stereo unspecified),?,nt,-13,-9,10%[15.4 µM],2%,0.7
CC1CCCC(C)N1NC(=S)Nc1ccc(OC(F)F)cc1 (stereo unspecified),0%,1.0%,10,-9,?,-3%,2.6
O=c1[nH]c(/C=C\c2cccnc2)c([N+](=O)[O-])c(=O)[nH]1,-24%,nt,-5,-5,-11%[15.4 µM],17%,-0.5
CCOC(=O)c1ccc(N=C2SC(C(=O)NC)CC(=O)N2CCc2ccccc2)cc1 (stereo unspecified),11%,-2.4%,-26,-2,1%[15.4 µM],-7%,3.1
O=C(Nc1ccc(S(=O)(=O)N2CCCC2)cc1)c1ccc([N+](=O)[O-])o1,nt,1.7%,nt,-14,-2%,?,nt

# Of the compounds above, these have a halogen.
SMILES,Sfp PPTase inh,ClpP mod,TRPV1 PAM,D2 potentiator,gsp agonist,gsp antagonist,Menin-MLL FL inh
CCOC(=O)C(C)(C)NS(=O)(=O)c1ccc(Cl)c([N+](=O)[O-])c1,-7%,1.3%,0,17,-7%,-24%,-0.2
COc1cc(/C=C/C(=O)OC(C)C(=O)NC2CCCCC2C)cc(Cl)c1OC (stereo unspecified),nt,?,5,-11,20%,-7%,nt
O=C(c1sc2cc([N+](=O)[O-])ccc2c1Cl)N1CCCCC1,-4%,-0.4%,-11,2,-3%[15.4 µM],-27%,1.9
CNc1oc(-c2ccccc2Cl)nc1C#N,3%,?,4,-12,18%,6%,4.5
COC(=O)c1cnn(C(=O)c2cc(OC)ccc2Br)c1N,7%,-1.1%,2,7,11%,1%,5.1
CC1CCCC(C)N1NC(=S)Nc1ccc(OC(F)F)cc1 (stereo unspecified),0%,1.0%,10,-9,?,-3%,2.6

# Carrying on:
SMILES,Sfp PPTase inh,ClpP mod,TRPV1 PAM,D2 potentiator,gsp agonist,gsp antagonist,Menin-MLL FL inh
CSc1ncccc1C(=O)OCc1nc2ccsc2c(=O)[nH]1,nt,0.9%,11,-10,0%,5%,nt
Cc1c(C2C(C#N)=C(N)OC3=C2C(=O)CCC3)cnn1C (stereo unspecified),9%,0.9%,5,1,23%[15.4 µM],0%,1.2
Cc1nn(CC(=O)NCc2ccccc2)c(=O)c2cccn12,17%,0.0%,-2,-2,0%,5%,-3.1
CCc1ccc(CN2CCC(C(=O)Nc3ccc(Oc4ccccc4)nc3)CC2)o1,6%,nt,-6,-23,-11%,8%,-0.1
C/C(=N\Nc1ccc(S(=O)(=O)Nc2ccccc2)cc1[N+](=O)[O-])c1ccc(N2CCOCC2)cc1,7%,-2.2%,26,-8,-37%[inhibitor],5%,-4.7
c1ccc(-c2nc(-c3ccc(-c4ccon4)s3)no2)cc1,-5%,?,-1,-15,-4%[15.4 µM],-5%,11
O=C(CCC(=O)Nc1ccccc1)NNC(=O)CCc1ccccc1,16%,nt,-2,2,-25%,10%,-0.3
CCN(CC)S(=O)(=O)c1ccc(OCC(=O)NCc2ccco2)cc1,?,nt,-23,2,-9%[15.4 µM],5%,-2.7
Cc1csc(Nc2ccccc2)[n+]1C,15%,nt,20,-6,5%[15.4 µM],2%,0.2
CC(C)Oc1cccc(C(=O)C2CCCN(C(=O)c3ccccn3)C2)c1 (stereo unspecified),17%,-9.3%,1,-27,?,5%,0.3
CCc1cc(C(=O)Nc2ccccc2N2CCOCC2)sc1C,nt,-1.3%,12,-16,-9%,-7%,nt
COCCCn1c(O)c(/C=C2\N=C(C#N)C(=Nc3ccc(C)cc3)O2)sc1=S,13µM*,nt,2,-7,17%,?,?
Cc1csc(NC(=O)c2cccnc2Cl)n1,nt,nt,nt,-3,10%[15.4 µM],-2%,nt
CN1C(=O)c2cccc3c(S(=O)(=O)N4CCCC4C(=O)O)ccc1c23 (stereo unspecified),17%,nt,7,-2,-6%[15.4 µM],12%,-0.3
COc1cc(C2CC(=O)n3c(nc4ccccc43)S2)cc(OC)c1OC (stereo unspecified),-11%,nt,24,nt,nt,nt,-6.4
CN1C(C(=O)NCc2cccc(Br)c2)CC2Cn3c(nc4ccccc43)C21 (stereo unspecified),27%,-0.2%,-9,-12,nt,0%,2.4
O=C(NCc1nc2ccccc2[nH]1)C1=C[C@H](c2ccccc2)C[C@H](OCc2ccc(CO)cc2)O1,-9%,-8.6%,25,-45,nt,-14%,5.7
C/C(=N/NC(=O)c1nnn(-c2nonc2N)c1COc1ccccc1)c1ccc(O)cc1,5%,-2.6%,6,-14,31%,-5%,5.8
CCCN1CCN(C(=O)Cn2cnc3ccc(S(=O)(=O)N4CCC(C)CC4)cc3c2=O)CC1,24%,nt,-1,-6,11%[15.4 µM],6%,-5.7
CCN(CCn1cccn1)C(=O)CC1C(=O)NCCN1Cc1ccc(F)cc1 (stereo unspecified),8%,nt,-5,-6,-32%[15.4 µM],15%,0.7
CCOC(=O)c1c(C)[nH]c(C(=O)NCCN2CCOCC2)c1C,22%,nt,-3,-10,-2%[15.4 µM],5%,-0.2
N#Cc1cc([N+](=O)[O-])ccc1NC(=O)COC(=O)CN1C(=O)C2CCCCC2C1=O (stereo unspecified),nt,-0.6%,nt,?,3%,-33%,nt
COC(=O)[C@H](C)NC(=O)Nc1ccccc1F,9%,-2.0%,2,5,?,4%,3.7
O=C(NC1CCCC1)C1CCN(c2cnccn2)CC1,11%,-3.6%,10,-5,12%,-3%,2.0
CCC1(c2ccc(OC)cc2)NC(=O)N(CC(=O)c2ccc3c(c2)OCCO3)C1=O (stereo unspecified),nt,-13%,0,-3,15%,-17%,nt
Cc1cc(O)c(C=Nc2cccc(Cl)c2)c(=O)o1,-13%,-5.5%,-9,-4,12%,-1%,?
COc1ccccc1Nc1nc(N)nc(CN2CCCCCC2)n1,-14%,-1.5%,-3,-12,3%,5%,0.4
COCCCN1C2=C(C(=O)CC(C)(C)C2)C(c2ccc(OC)c(OC)c2)C2=C1CC(C)(C)CC2=O,25%,-4.7%,-4,-1,-4%,-8%,-0.8
COC(=O)c1ccccc1NC(=O)COC(=O)CSc1nnc(N)s1,-1%,34%,3,0,0%,-14%,3.7
Cc1ccc(OCc2n[nH]c(=S)n2N)cc1C,?,-0.8%,-15,-22,-5%[15.4 µM],-12%,1.3

# Taken from above.
# `COC(=O)c1ccccc1NC(=O)COC(=O)CSc1nnc(N)s1` in gsp antagonist is entered as -14%
# `COc1ccccc1Nc1nc(N)nc(CN2CCCCCC2)n1` in Menin-MLL FL inh is entered as 0.4

# Bioassay records as filed in PubChem.
